KCNQ2 block = KCNQ2 potassium channel inhibitors, primary screen, cell-based, CHO-K1, FluxOR thallium flux, B-score (AID 2156); O88943; 20 min; hits give low values; only compounds with negative scores are shown here; some inactives read as strong as hits; B-score at 10 µM; 1.1% of 310,000 active;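 active means fluorescence ratio B-score at most minus 3 library SDs, with starting brightness B-score within 2 library SDs, cut at about -5.5 in these data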
Target sequence (O88943 whole entry, looked up): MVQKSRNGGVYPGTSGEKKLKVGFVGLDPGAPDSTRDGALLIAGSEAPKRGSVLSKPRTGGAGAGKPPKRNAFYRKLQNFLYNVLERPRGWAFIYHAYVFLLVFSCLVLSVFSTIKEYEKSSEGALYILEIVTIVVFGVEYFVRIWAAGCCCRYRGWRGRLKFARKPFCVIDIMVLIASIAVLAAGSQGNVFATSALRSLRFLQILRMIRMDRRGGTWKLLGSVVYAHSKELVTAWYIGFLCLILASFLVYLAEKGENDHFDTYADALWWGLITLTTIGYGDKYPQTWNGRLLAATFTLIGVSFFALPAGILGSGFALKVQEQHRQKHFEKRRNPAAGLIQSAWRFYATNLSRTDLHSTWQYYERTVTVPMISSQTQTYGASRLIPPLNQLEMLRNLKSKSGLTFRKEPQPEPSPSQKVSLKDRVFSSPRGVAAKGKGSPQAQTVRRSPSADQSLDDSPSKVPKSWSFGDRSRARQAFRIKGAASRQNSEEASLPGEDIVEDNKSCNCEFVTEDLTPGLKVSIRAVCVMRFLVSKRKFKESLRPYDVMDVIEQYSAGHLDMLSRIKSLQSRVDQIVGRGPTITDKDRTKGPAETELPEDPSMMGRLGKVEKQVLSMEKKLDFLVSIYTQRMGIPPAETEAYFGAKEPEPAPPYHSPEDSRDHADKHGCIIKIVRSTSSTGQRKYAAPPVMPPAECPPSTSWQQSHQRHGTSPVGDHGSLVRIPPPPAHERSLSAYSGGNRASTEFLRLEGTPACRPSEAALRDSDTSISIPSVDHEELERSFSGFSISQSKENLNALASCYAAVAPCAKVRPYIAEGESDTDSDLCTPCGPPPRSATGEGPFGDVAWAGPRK
KCNQ2 block baseline = second read-out of KCNQ2 block, no call of its own (marks repeat the call); B-score; measured here: initial fluorescence intensity artifact check;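 brightness before thallium and not channel activity; 0 = typical well and far values either way flag optical interference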
The depositor's hits bear a star; i = inactive. A portion of the library; rates above refer to the full screens.

The line under a structure holds: KCNQ2 block | KCNQ2 block baseline
- CCc1noc(C)c1C(=O)Nc1cccc2ncccc12
→ i | 0.02
- Cc1ccccc1NC(=O)c1ccc(NC(=O)C2CCCO2)cc1 (configuration not stated)
→ i | 1.8
- CCOc1ccc(-c2nnc3ccc(SC)nn23)cc1
→ i | 2.6
- CC(C)N(Cc1nc(-c2ccc(Cl)cc2)no1)C(=O)CCC1CCCC1
→ -6.2* | -0.12*
- Cc1cccc(C(=O)c2cn[nH]c2-c2ccccc2O)c1
→ i | -0.11
- O=C(CN1CCCc2ccccc21)NC(=O)NC1CCCCC1
→ i | 0.1
- CCOC(=O)c1sc2nc(C)nc(SCC(=O)NC(C)CCc3ccccc3)c2c1C (configuration not stated)
→ i | 3.9
- Cc1cc(NC(=O)CN2CCCC(C)C2)n(-c2nc3ccccc3s2)n1 (configuration not stated)
→ i | 0.43
- CCCCS(=O)(=O)N1CCCC(C(=O)NCC2CCCO2)C1 (configuration not stated)
→ i | 1.4
- O=C(CCn1c(=O)[nH]c2ccccc2c1=O)N1CC=C(c2ccccc2)CC1
→ i | 0.11
- Nn1c(SCC(=O)NCCC2=CCCCC2)nnc1C(F)(F)F
→ i | -0.61
- Cc1cc(=O)n2nc(N3CCCC(C(=O)NCc4cccc(Cl)c4)C3)sc2n1 (configuration not stated)
→ i | -2
- CC1CCN(CCCCOc2ccccc2Br)CC1
→ i | 0.96
- CCCCn1c(NCc2cccs2)nc2ccccc21
→ i | 0.09
- CCOC(=O)c1oc2ccccc2c1NC(=O)c1ccc(S(=O)(=O)N2CCCC2)cc1
→ i | 0.67
- Cc1cc(C)cc(N(CC(=O)NCc2ccco2)S(=O)(=O)c2c(C)noc2C)c1
→ i | 3
- CC(=O)Nc1ccc2c(c1)ncn2C1CCCCC1
→ i | 0.2
- CCOC(=O)C(=CNc1ccc(O)c(C(=O)OC)c1)C(=O)OCC
→ i | 1.1
- COc1ccc(Br)cc1C(=O)Nc1cccc(C)c1C
→ i | -0.13
- CCC(C)NC(=O)CC(NS(=O)(=O)c1ccc(NC(C)=O)cc1)C(C)C (configuration not stated)
→ i | 0.05
- Cc1ccc(NC(=O)c2ccc3c(=O)n4c(nc3c2)CCCCC4)cc1F
→ i | -0.32
- CC(C)(C)C(=O)CN1C(=O)NC(c2ccccc2)(c2ccccc2)C1=O
→ i | -1.1
- COc1ccc(N2CCN(S(=O)(=O)/C=C/c3ccccc3)CC2)cc1
→ i | 0.43
- Cc1oc(-c2ccccc2)nc1Cn1cccc1C1=NC(c2ccccc2)CO1 (configuration not stated)
→ -6* | 0.14*
- COc1ccc(CCNc2ccc(C(CC(N)=O)NC(=O)c3ccc(Br)cc3)cc2[N+](=O)[O-])cc1 (configuration not stated)
→ i | 1.6
- COc1cc(-c2nc(N)n[nH]2)cc(OC)c1OC
→ i | 0.71
- CCOc1ccc(-c2cccc(NC(=O)c3ccc(Br)o3)c2)nn1
→ i | 1.1
- O=C(CN1C(=O)C2C3C=CC(C4CC34)C2C1=O)NCc1ccco1 (configuration not stated)
→ i | -0.68
- O=C(CCN1CCOCC1)N/N=C/c1cc([N+](=O)[O-])ccc1OC(F)F
→ i | -0.15
- Cc1nn(Cc2ccccc2)c(C)c1NS(=O)(=O)c1ccccc1
→ i | 0.13
- O=[N+]([O-])C(=C1Nc2ccccc2N1)/C(Cl)=C(/Cl)Br
→ i | 2
- CN1CCN(c2nc3c(c(=O)n(C)c(=O)n3C)n2CCSc2nnnn2-c2ccccc2)CC1
→ i | -0.1
- COc1ccc(C)cc1NC(=O)c1ccc([N+](=O)[O-])cc1[N+](=O)[O-]
→ i | -0.48
- Nc1ncc(Br)cc1S(=O)(=O)NCCc1ccccc1
→ i | -1.1
- COc1ccc(C(CC(=O)Nc2ncccc2C)N2Cc3ccccc3C2=O)cc1 (configuration not stated)
→ i | -1.5
- COC(=O)c1ccccc1NC(=O)CN(Cc1ccc(Cl)cc1)S(C)(=O)=O
→ i | 0.28
- CCSc1nnc(NC(=O)C(CC)Oc2ccccc2)s1 (configuration not stated)
→ i | 0.65
- CC(C)[C@H](NC(=O)c1ccccc1Cl)C(=O)OCc1cc(=O)n2cc(Br)ccc2n1
→ i | -3.7
- COc1ccc(-n2c(SC3CCOC3=O)nc3ccccc32)cc1 (configuration not stated)
→ i | 1.2
- CCC(c1nnnn1CCOC)N1CCN(C(=O)c2ccco2)CC1 (configuration not stated)
→ i | 1.7
- Cc1ccc2nc(C)cc(Cl)c2c1
→ i | -1.2
- COc1ccc(-c2nnc(SCCC(=O)O)n2-c2ccccc2)cc1
→ i | -0.2
- COc1ccc(-c2noc(-c3ccccc3-c3ccccc3)n2)cc1OC
→ -8.9* | -0.61*
- O=C(Nc1cccn2ncnc12)c1ccc(Cl)cc1Cl
→ i | 0.84
- COc1ccc(N2CCN(C(=O)CC3NC4CCCCC4NC3=O)CC2)cc1 (configuration not stated)
→ i | 0.46
- CCOC(=O)c1cc(-c2ccccc2)nn1Cc1cc(CC)no1
→ i | 0.06
- Cc1ccc(Cn2c(/C=C/c3ccco3)nc3ccccc32)cc1
→ i | -1.3
- Cc1ccc(-n2[nH]c(C)c(/C=N/N3C(=O)c4cccc5cccc(c45)C3=O)c2=O)cc1
→ i | 1.4
- Cc1ccc(NC(=S)C2=C(O)c3sccc3N(C)S2(=O)=O)cc1
→ i | 2.1
- COCCn1c(SCCN2CCCCC2)nc2ccccc2c1=O
→ i | -1.6
- O=S(=O)(c1ccc(Br)cc1)N1CCC2(CC1)OCCO2
→ i | 0.04
- CCc1nccn1S(=O)(=O)c1ccc(Br)cc1Br
→ i | 0.52
- CCN(CC)CCN(C(=O)c1ccc2ccccc2c1)c1nc2cc3c(cc2s1)OCO3
→ i | -0.21
- NC(=O)Cc1nc(-c2ccc([N+](=O)[O-])cc2)cs1
→ i | 3.6
- CCN(CC(=O)NCc1ccccc1Cl)CC(=O)Nc1c(F)cccc1F
→ i | 2.5
- CCOC(=O)[C@@H]1[C@H]2COc3cc(OC)ccc3[C@H]2N2C(=O)N(c3ccc(C(F)(F)F)cc3)C(=O)[C@@]12C
→ i | -0.3
- CN(C)S(=O)(=O)c1ccc(Cl)c(NC(=O)COC(=O)/C=C/c2ccco2)c1
→ i | 2.1
- CCc1ccc2nc(N(CCCN(C)C)C(=O)c3ccc(S(=O)(=O)N4CCCC4)cc3)sc2c1
→ i | -0.13
- CCc1ccc(N(CC(=O)O)S(=O)(=O)c2c(C)noc2C)cc1
→ i | 0.12
- Cc1nc2c(-c3ccc(F)cc3)c(C)nn2c(C)c1CCC(=O)N1CCN(c2ccc(F)cc2)CC1
→ i | -0.55

Going on with the list:
The line under a structure holds: KCNQ2 block | KCNQ2 block baseline
- CC(=O)C1=C(C)NC(=O)NC1c1ccc2c(c1)OCO2 (configuration not stated)
→ i | 0.12
- Cc1cc(S(=O)(=O)N2CCCCCC2)c(Cl)cc1Cl
→ i | -2.1
- O=C(O)c1cc(-c2cccnc2)nc2ccccc12
→ i | -0.76
- COC(CNC(=O)c1cccc2c1C(=O)N(Cc1cccnc1)C2)OC
→ i | -0.07
- CC(C)(C)C(=O)Cn1ncc(Cl)c(Cl)c1=O
→ i | 0.41
- COC(=O)CSc1n[nH]c(-c2cccnc2)n1
→ i | -0.22
- O=C(CN1C(=O)CCSc2ccc(S(=O)(=O)N3CCCC3)cc21)Nc1ccccc1
→ i | -0.29
- CN1CCCCCC1=Nc1ccc([N+](=O)[O-])cc1
→ i | -0.47
- Cc1ccc(C(=O)O/N=C/c2c(C)nn(C)c2Cl)cc1
→ i | 2.1
- CC(Sc1nnc(-c2cccnc2)n1N)C(=O)N1CCOCC1 (configuration not stated)
→ i | 1.1
- CCCN(CCC)CCCNC(=O)c1ccc(CS(=O)(=O)c2c(Cl)cccc2Cl)o1
→ i | 0.12
- O=C(CCN1C(=O)C2C3C=CC(C3)C2C1=O)NC1CCCc2ccccc21 (configuration not stated)
→ i | 0.57
- COc1ccc(/C=C2/SC(=O)NC2=O)cc1
→ i | 1.6
- CC1(C)CC(=O)C2=C(C1)OC(c1ccncc1)C(C#N)=C2N (configuration not stated)
→ i | -0.08
- C#CCOCCOCCOCCNc1nc(N2CCN(C(=O)[C@H]([C@@H](C)CC)n3cc([C@@H](N)CC(C)C)nn3)CC2)nc(N2CCN(C(=O)[C@H](CCCCN)n3cc([C@@H](N)CC(C)C)nn3)CC2)n1
→ i | -0.75
- Cc1cc(Cl)ccc1NC(=S)NCCc1ccc(Cl)cc1
→ i | -0.06
- O=C(Nc1ccccc1F)c1ccc(Cn2cc(Br)cn2)cc1
→ i | 2.3
- COc1cc(CN2CCNC(=O)C2CC(=O)NC2CCC2)cc(OC)c1 (configuration not stated)
→ i | -0.01
- CCOc1ccc(N2C(=O)S/C(=C\c3cccn3C)C2=O)cc1
→ i | 2.4
- COc1ccccc1CNC(=O)C1CCC(CNc2c(N3CCC(C)CC3)c(=O)c2=O)CC1 (configuration not stated)
→ i | -1.2
- O=C(NNC(=O)C12CC3CC(CC(C3)C1)C2)c1ccccn1
→ i | 0.82
- N#Cc1ccc(COC(=O)CCc2c[nH]c3ccccc23)cc1
→ i | -0.18
- Cc1ccc(C(O)c2ccc(-n3ccnc3)cc2)cc1 (configuration not stated)
→ i | -1.4
- CCOC(=O)C1CCN(Cc2cccc(OC)c2)CC1
→ i | 1.2
- O=c1c2c([nH]n1-c1ccccc1)CCSC2
→ i | -0.14
- O=C(Nc1cccc(Cl)c1N1CCOCC1)c1ccc(Br)o1
→ i | -2.2
- Cc1nc2ccccc2cc1C(=O)Nc1ccccc1Cl
→ i | 0.56
- Cc1ncc(C[n+]2csc(CCOC(=O)C34CC5CC(CC(C5)C3)C4)c2C)c(N)n1
→ i | -0.51
- Clc1ccc(OCc2cn3cccnc3n2)c2ncccc12
→ i | -0.75
- O=C1NCN(c2ccccc2)C12CCN(CCCC(c1ccc(F)cc1)c1ccc(F)cc1)CC2
→ i | -1.3

Some values from above:
For KCNQ2 block baseline, CCOc1ccc(-c2nnc3ccc(SC)nn23)cc1 has 2.6
For KCNQ2 block baseline, COc1ccc(/C=C2/SC(=O)NC2=O)cc1 has 1.6
For KCNQ2 block baseline, Nn1c(SCC(=O)NCCC2=CCCCC2)nnc1C(F)(F)F has -0.61
For KCNQ2 block baseline, Cc1ncc(C[n+]2csc(CCOC(=O)C34CC5CC(CC(C5)C3)C4)c2C)c(N)n1 has -0.51

The listing continues:
The line under a structure holds: KCNQ2 block | KCNQ2 block baseline
- CCOc1ccc(C2CC(c3ccc(F)cc3)Nc3nc(N)nn32)cc1 (configuration not stated)
→ i | 1.2
- CCCCCCNc1nc(-c2ccc(OC)cc2)c(CCC(=O)O)s1
→ i | -0.35
- Cc1ccc(CNCc2ccccc2Cl)cc1
→ i | -1.4
- Cc1[nH]n(-c2ccccc2)c(=O)c1S(=O)(=O)c1ccccc1
→ i | 0.25
- O=C(COc1ccccc1)NC1CCN(Cc2ccccc2)CC1
→ i | -1.4
- Nc1nc(Cl)cc(Oc2ccc([N+](=O)[O-])cc2)n1
→ i | -0.04
- COc1ccc(C2C(C(=O)NCC3CCCO3)CCC(=O)N2c2ccc3c(c2)OCO3)cc1 (configuration not stated)
→ i | 0.58
- CCN(CC(=O)NCc1ccc(Cl)cc1)C(=O)c1cc2ccccc2o1
→ i | -0.77
- CC(CN1CCCCC1)OC(=O)c1ccccc1Cl (configuration not stated)
→ i | -0.22
- O=C(C1=C[C@@H](c2ccc(Br)cc2)C[C@@H](OCCCCO)O1)N1CCOCC1
→ i | 0.11
- FC(F)(F)c1cccc(CNC2CCN(Cc3ccccc3)CC2)c1
→ i | 1.4
- CC1(C)Cc2cccc(OCC(=O)Nc3ccccc3F)c2O1
→ i | 2.6
- COC(=O)CSC1=C(C#N)C(=O)NC(c2ccccc2)S1 (configuration not stated)
→ i | -1
- COc1cc(C2c3c([nH]c(=O)[nH]c3=O)Nc3ccc4ccccc4c32)cc(OC)c1OC (configuration not stated)
→ i | 1.7
- CN1CCc2c(sc3c2C(=O)NC(c2cccc(OC(=O)c4cccs4)c2)N3)C1 (configuration not stated)
→ i | 2.8
- O=C(Cn1cnc2c(nnn2Cc2ccc(F)cc2)c1=O)Nc1ccc2c(c1)OCCO2
→ i | 0.91
- COc1cc(/C=C(\C#N)C(=O)NCC2CCCO2)ccc1OCC(=O)O (configuration not stated)
→ i | 0.67
- COc1ccc(C(=O)c2coc3ccc(O)c(CN4CCOCC4)c23)cc1
→ i | 0.22
- Cc1ccccc1CNS(=O)(=O)c1c(C(=O)N2CCCC2)c(C)n(C)c1C
→ i | -1.2
- O=C(Cc1csc(NC(=O)Nc2cccc(Cl)c2)n1)NCc1cccnc1
→ i | 1.2
- Cc1ccc(C2=NN(C(=S)Nc3ccccc3)C(c3ccco3)C2)cc1 (configuration not stated)
→ i | -1.7
- CC(C)NC(=O)c1ccc(CN2CCc3ccccc3C2)cc1
→ i | 0.57
- COCCN(C(=O)C(C)C)c1nnc(-c2cccc(C)c2)s1
→ i | -1.6
- O=C(NNC(=O)c1cc(-c2ccc(Cl)cc2)nc2ccccc12)c1csc(N2CCOCC2)n1
→ i | -1.3
- CC(C)Oc1ccc(/C=C(\C#N)C(=O)NC2CC2)cc1
→ i | 0.36
- Cc1ccc(NC2CCCN(C(=O)c3ccc(C)c(N4CCNC4=O)c3)C2)cc1C (configuration not stated)
→ i | 0.8
- COc1cccc(/C=C/c2ccc3cccc(O)c3n2)c1
→ i | 0.29
- COc1cccc(-c2nnc(-c3ccccc3NC(=O)c3ccc(C(C)(C)C)cc3)o2)c1
→ i | 0.8
- COc1ccc(CCCC(=O)Nc2cc(C)ccc2OC)cc1
→ i | -0.62
- CCOC(=O)c1c(-c2ccc(C)o2)csc1NC(=O)CSc1ncn[nH]1
→ i | 0.36
- COC(=O)c1cc(=O)n(Cc2cccs2)c(=Nc2ccccc2)s1
→ i | 0.11

Random excerpt: three compounds from above, in no set order.
The line under a structure holds: KCNQ2 block | KCNQ2 block baseline
- Cc1ccccc1CNS(=O)(=O)c1c(C(=O)N2CCCC2)c(C)n(C)c1C
→ i | -1.2
- COc1cc(/C=C(\C#N)C(=O)NCC2CCCO2)ccc1OCC(=O)O (configuration not stated)
→ i | 0.67
- Cc1ccc(CNCc2ccccc2Cl)cc1
→ i | -1.4

Bioassay records deposited in PubChem BioAssay by Johns Hopkins Ion Channel Center.
